High-throughput results: PubChem, several laboratories
RanGTP-Imp inh – disruptors of Ran-importin-beta complex formation – biochemical, FRET, CFP-Ran, YFP-importin-beta, homogeneous, primary screen; cell-free CFP-Ran/YFP-importin-beta FRET ratio; inhibition, % (test concentration not listed); actives 1.1% (n = 300,000); AID 2216;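 active = most replicates above 15%; inconclusive = exactly half above 15%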;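 also: 0% = DMSO wells and 100% = Ran loaded with GDP instead of GTP; wells of about 40 µL received 100 nL stock; the first replicate is given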
HNF4A DNA FP – change in binding of human HNF4 alpha to DNA; actives 0.3% (n = 360,000); activity change, % at 10 µM; P41235; HNF4a-FITC DNA binding, fluorescence polarization, 1 h; in the data active = activity change above about 30%, passing the limit was not always enough;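 also: controls were the assay level and a saturating level of protein; the project sought stronger binding though the title names inhibitors; some compounds called inactive have numbers as strong as hits; positive values seem to mean higher polarization but the record does not say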
Target sequence (P41235 whole entry, looked up): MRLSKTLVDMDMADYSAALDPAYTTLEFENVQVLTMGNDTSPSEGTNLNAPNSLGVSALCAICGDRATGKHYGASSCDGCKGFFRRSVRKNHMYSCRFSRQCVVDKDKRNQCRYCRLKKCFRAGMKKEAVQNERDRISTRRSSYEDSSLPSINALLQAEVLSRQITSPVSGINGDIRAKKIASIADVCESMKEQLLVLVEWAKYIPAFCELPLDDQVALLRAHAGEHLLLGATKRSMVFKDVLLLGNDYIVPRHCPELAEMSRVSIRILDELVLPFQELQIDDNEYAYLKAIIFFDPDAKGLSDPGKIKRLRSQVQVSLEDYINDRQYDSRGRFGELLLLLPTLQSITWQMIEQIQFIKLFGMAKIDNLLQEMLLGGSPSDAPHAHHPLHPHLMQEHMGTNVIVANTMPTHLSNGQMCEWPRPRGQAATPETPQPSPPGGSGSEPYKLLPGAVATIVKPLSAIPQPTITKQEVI
AF4-AF9 inh – inhibitors of human MLL-AF4/AF9 interaction. P42568. inhibition, % at 10 µM. AID 651704. AlphaScreen, biotin-AF4 peptide binding to FLAG-AF9. actives 0.47% (n = 350,000);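 active = every replicate reaching a set inhibition limit, whatever the replicate mean, cut at about 25% in these data; inconclusive = mean inhibition reaches that limit but some replicates miss it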;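 also: 0% = plate neutral control median and 100% = total signal loss; the record names both 10 and 1 µM as test concentration; the first replicate is given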
Target sequence (P42568 whole entry, looked up): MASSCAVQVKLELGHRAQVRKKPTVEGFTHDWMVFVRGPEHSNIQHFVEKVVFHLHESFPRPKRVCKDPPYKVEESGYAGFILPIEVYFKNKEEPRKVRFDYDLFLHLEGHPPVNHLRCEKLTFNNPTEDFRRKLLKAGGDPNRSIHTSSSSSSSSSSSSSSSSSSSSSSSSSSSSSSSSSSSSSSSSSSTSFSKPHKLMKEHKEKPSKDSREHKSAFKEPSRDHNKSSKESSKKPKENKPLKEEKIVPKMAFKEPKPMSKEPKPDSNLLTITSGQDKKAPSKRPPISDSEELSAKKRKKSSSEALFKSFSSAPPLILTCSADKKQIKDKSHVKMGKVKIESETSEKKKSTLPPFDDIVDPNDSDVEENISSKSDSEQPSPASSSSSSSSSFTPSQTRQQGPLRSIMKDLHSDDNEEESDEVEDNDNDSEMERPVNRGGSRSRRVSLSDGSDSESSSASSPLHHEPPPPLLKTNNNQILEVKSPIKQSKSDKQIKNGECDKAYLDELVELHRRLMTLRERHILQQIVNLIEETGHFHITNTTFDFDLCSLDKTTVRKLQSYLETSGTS
UCH37 DUB inh – inhibitors of human deubiquitinating enzyme UCH37. inhibition, % (test concentration not listed). purified proteasome/UCH37, Ub-AMC cleavage fluorescence. AID 588478. Q9Y5K5. actives 0.33% (n = 330,000);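 active = mean of two replicates above 20%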;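 also: 0% = compound-free wells with enzyme and 100% = wells lacking proteasome; stock transfer was 100 nL into about 20 µL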
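System: Proteasome-associated human UCH37 deubiquitinase; Input: 0.15 nM proteasome in added enzyme buffer; Also added: Ub-AMC substrate from 1 µM stock; Incubation: 30 min compound-proteasome preincubation then 25 min substrate reaction, room temperature; Detection: fluorescence, ex 355 nm, em 460 nm; Read-out: % inhibition of Ub-AMC cleavage fluorescence; Benchmarks: no-proteasome and no-compound wells.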
Vif TR-FRET – inhibitors of Vif binding to APOBEC3G peptide, primary screen, biochemical, TR-FRET, GST-Vif 1-94, biotin-A3G peptide, dose response retest (AID 1117319) | TR-FRET GST-Vif / biotin-A3G peptide binding; higher % means a stronger effect; test concentration not given here; strong numbers were not always called active | inhibition, %, or IC50 in µM where a hit was titrated | actives 0.57% (n = 260,000);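 active = above the screen mean plus three standard deviations and confirmed in dose response; inconclusive = results disagree or hit not tested in dose response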;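 also: Vif residues 1-94 fused to GST binding biotinylated APOBEC3G peptide 110-148; 0% = full assay without inhibitor and 100% = GST in place of GST-Vif; retest series ran down from 100 µM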
E coli growth – E. coli growth inhibition. Escherichia coli growth, OD600, 23 h; stronger effect = lower value. OD600 absorbance (test concentration not listed). actives 0.21% (n = 330,000). AID 1053175;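 active = OD600 absorbance below the run mean of sample wells minus 3.6 SD, in any replicate, cut at about 0.56 in these data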;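 also: stock transfer was 300 nL into about 60 µL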
FGF22 binding – binders of recombinant human FGF22 by thermal shift; calls only at 9.99 µM; actives 1.5% (n = 340,000); SYPRO orange fluorescence; percent of sucrose octasulfate shift, DMSO zero; Q9HCT0;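 active = melting point raised past a set limit in the mean and every replicate; inconclusive = no clear call; three in four hits are not shown here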
* = called active by the depositor; i = inactive; ? = inconclusive; nt = no result given; & = joins results of further samples. Some of the compounds tested. The share of hits here may be higher or lower than overall.

Second line of a record: RanGTP-Imp inh, HNF4A DNA FP, AF4-AF9 inh, UCH37 DUB inh, Vif TR-FRET, E coli growth, FGF22 binding
> CCc1ccc(/C=C/c2c[nH]c3ccccc23)[n+](CC)c1
    -16.6, 17.3, 0.9, 9.5, -5.6%, 0.671, i
> O=C(NNC1CC(=O)N(c2ccc(Br)cc2)C1=O)c1ccccn1 (stereo unspecified)
    ?, -2.9, 2.8, 1.5, 6.7%, 0.688, i
> CC(C)Oc1ccc(/C=N/NC(=O)c2nnn(-c3nonc3N)c2CN(C)c2ccccc2)cc1
    2.7, 2.1, 3.9, nt, nt, nt, i
> Cc1nc(C(=O)O)nn1-c1ccc([N+](=O)[O-])cc1
    -2.3, 0.6, -13.3, 3.7, 7.7%, 0.689, i
> Cc1ccccc1Cn1cc(NC(=O)c2cc(C3CC3)on2)cn1
    7.4, -1.0, -5.4, 2.1, 68.2%, 0.68, i
> CCC(OC(=O)C1=Cc2ccccc2OC1)C(=O)NCc1ccco1 (stereo unspecified)
    1.4, -0.6, -1.1, -16.0, nt, 0.699, i
> O=C(O)c1ccc(CSc2nnc(COc3ccccc3)o2)cc1
    ?, -3.1, -1.3, 0.2, -5.6%, 0.691, i
> Cc1cc(C)c(C)c(S(=O)(=O)N(C)CCc2ccccn2)c1C
    nt, 2.8, 0.5, 1.1, nt, 0.693, i
> COCCCNC(=S)Nc1cc(C)c(C)cc1C
    -2.9, -3.3, -0.9, 5.6, -7.8%, 0.713, i
> COc1ccc(NC(=O)NC2CCCCC2C)cc1 (stereo unspecified)
    1.2, 2.2, -0.6, 2.0, 7.9%, 0.722, i
> O=C(NC(=S)Nc1ccc(NC(=O)c2ccco2)cc1)c1ccccc1
    -0.8, 1.3, -0.4, 5.2, -2.3%, 0.721, i
> O=C(NC1CC1)C(Cl)c1ccccc1 (stereo unspecified)
    2.4, -3.0, -5.8, -1.4, -4.5%, 0.64, i
> CCN1CCN(CC(=O)N/N=C/c2cc(Br)cs2)CC1
    5.7, -2.9, 1.2, nt, nt, nt, i
> CCn1c(-c2cccn(Cc3ccccc3)c2=O)n[nH]c1=S
    1.6, -0.3, -9.2, -2.5, -1.8%, 0.689, i
> CC1CC(C)CN(C(=O)COC(=O)C2CCN(S(=O)(=O)c3ccc4c(c3)OCCO4)CC2)C1 (stereo unspecified)
    4.3, 0.0, -13.1, 0.3, -3.3%, 0.63, i
> COCC(COS(N)(=O)=O)C(C)C (stereo unspecified)
    6.2, 2.3, -3.1, 0.4, nt, 0.694, i
> CC1CCC2(CC1)NC(=O)N(CC(=O)NC1(C#N)CCCCC1)C2=O (stereo unspecified)
    1.1, -2.8, -0.4, 1.3, -7.2%, 0.629, i
> CCCSc1ccc(-c2nn(-c3ccccc3)cc2/C=C(/C#N)C(=O)NCCCOC)cc1
    4.2, -0.9, nt, i, -1.5%, 0.751, nt
> CCOc1ccc(NN=C(C(=O)OC)C(=O)OC)c([N+](=O)[O-])c1
    -1.4, 5.1, -1.2, 3.9, 23.6%, 0.699, i
> CCc1ccc2oc(C(=O)N3CCN(c4ccc(OC)cc4)CC3)cc(=O)c2c1
    4.4, -1.3, 0.0, 0.6, 4.2%, 0.67, i
> COc1ccc(C(=O)COC(=O)c2cc(=O)c3ccccc3o2)c(OC)c1
    nt, 0.6, -4.4, nt, -2.6%, nt, i
> O=C(c1ccccn1)c1ncc(C(F)(F)F)cc1Cl
    -2.2, 1.8, nt, 1.2, 4.8%, 0.68, nt
> Cn1c(C(=O)Nc2ccc3c(c2)OCO3)cc2c(=O)n(C)c3ccccc3c21
    ?, 1.1, 0.8, -33.4, 0.1%, 0.78, i
> O=C(/C=C/c1ccccc1)NC1CCSC1=O (stereo unspecified)
    -3.5, 3.9, nt, 2.8, 4.3%, 0.637, nt
> O=C(Nc1ccccc1[N+](=O)[O-])OCC=Cc1ccccc1
    nt, 2.3, 1.1, nt, 5.2%, nt, i
> COc1ccc(C2c3sc(=O)[nH]c3SC3C4CCC(C4)C23)cc1 (stereo unspecified)
    5.2, -2.7, nt, 6.5, -2.8%, 0.714, nt
> COc1ccc(/C(O)=C/C(=O)C(=O)Nc2c(C)n(C)n(-c3ccccc3)c2=O)cc1
    2.0, 2.0, nt, nt, 1.3%, nt, nt
> COc1ccc(S(=O)(=O)Nc2ccc(F)cc2)cc1N(C)S(=O)(=O)c1ccc(Cl)cc1
    -2.8, 2.8, -1.7, 2.4, -0.8%, 0.684, i
> Cc1cccc(OCC(O)Cn2c(NCCCOC(C)C)nc3c2c(=O)[nH]c(=O)n3C)c1 (stereo unspecified)
    3.6, 0.5, nt, 6.1, 2.2%, 0.79, nt
> COc1ccc(OCCN2CCN(C(=O)c3ccc(OC)cc3)CC2)cc1
    4.2, -2.5, 1.4, 0.8, nt, 0.651, i
> CCN(CC)c1ccc(NC(=O)CSc2ccsc2[N+](=O)[O-])c(C)c1
    -3.0, -12.8, nt, 7.4, 25.6%, 0.692, nt
> CC1CCCN(S(=O)(=O)c2ccc(CN3C(=O)c4cccnc4C3=O)cc2)C1 (stereo unspecified)
    1.3, 3.2, -0.6, 2.5, nt, 0.639, i
> CC1CCCN(C(=O)CCNS(=O)(=O)c2ccc(Br)cc2)C1 (stereo unspecified)
    -2.7, -9.5, 9.4, 1.5, 5.6%, 0.637, i
> O=C(C[C@H]1C[C@@H]2c3cc(NC(=O)c4cccnc4)ccc3O[C@@H]2[C@H](CO)O1)NCc1ccncc1
    nt, 3.0, 2.0, nt, nt, nt, i
> COc1cc2c(cc1OC)CN(C(=O)Cc1ccc(OC)c(S(=O)(=O)N3CCOCC3)c1)CC2
    -1.0, -2.2, nt, -2.5, 0.8%, 0.712, nt
> C(=N\c1ncnc2sccc12)/NOCc1ccccc1
    -0.9, 5.2, nt, nt, 22.3%, nt, nt
> CSCCC(NC(=O)c1ccc(=O)n(C)n1)c1nc2ccccc2[nH]1 (stereo unspecified)
    4.2, 3.1, nt, 2.0, 1.8%, 0.72, nt
> CCc1cc2c(=O)c(-c3cnn(-c4ccccc4)c3)c(C)oc2cc1OCC(=O)Nc1ccc(F)c(F)c1
    -0.5, -2.3, -3.8, -0.3, -69.1%, 0.769, i
> O=C(COC(=O)CCc1ccc(S(=O)(=O)N2CCOCC2)cc1)Nc1ncc(C(F)(F)F)cc1Cl
    4.1, 3.6, nt, 3.5, 1.5%, 0.734, nt
> CC(Cc1n[nH]c(=S)o1)c1ccccc1 (stereo unspecified)
    -3.0, 0.0, -15.6, 0.9, -11.7%, 0.712, i
> COc1cc(Cl)c(CNC[C@H]2O[C@@H](n3ccc(=O)[nH]c3=O)[C@H](O)[C@@H]2O)c(Cl)c1O
    nt, 1.9, -0.5, nt, 2.5%, nt, i
> O=C(CCS(=O)(=O)c1ccc(Cl)cc1)NCCN1C(=O)S/C(=C\c2ccccc2F)C1=O
    -2.9, 4.6, 1.3, 4.3, 3.0%, 0.644, i
> COCCN1C(=O)c2cc(C(=O)Nc3cccc(F)c3)ccc2C1Nc1cccc(F)c1 (stereo unspecified)
    -3.0, 0.4, 2.8, 6.1, -10.8%, 0.747, i
> NS(=O)(=O)c1ccc(NC(=O)c2cccc3cc4ccccc4nc23)cc1
    nt, 8.6, 0.0, nt, nt, nt, i
> COc1cc(C(=O)OCC(=O)NCCC2=CCCCC2)cc(OC)c1OC
    nt, 1.8, -1.6, 4.0, 0.1%, 0.699, i
> O=C(/C=C/Nc1cccc(C(F)(F)F)c1)C(F)(F)F
    nt, 3.1, -10.9, 0.9, ?, 0.785, i
> COc1c(C)cccc1C(=O)Nc1ccc(CN2CCCCC2)cc1
    2.7, 0.4, nt, 1.1, 8.7%, 0.696, nt
> COc1ccc(S(=O)(=O)N2CCN(c3ncccn3)CC2)cc1
    0.6, -1.8, -0.2, 0.7, nt, 0.651, i
> CCOC(=O)c1ccc(NC(=S)N2CCN(CCN=CC3=C(O)CC(C)(C)CC3=O)CC2)cc1
    -3.7, -0.9, -0.2, -0.3, -1.5%, 0.697, i
> C=CCOc1ccc(C2N3CC4(C)CN2CC(CCC)(C3)C4=O)cc1 (stereo unspecified)
    nt, -3.7, nt, 0.9, 0.1%, 0.782, nt
> NC(=O)COC(=O)C(Cc1ccccc1)NS(=O)(=O)c1ccccc1F (stereo unspecified)
    1.4, 4.0, nt, 2.7, nt, 0.682, nt
> CS(=O)(=O)N1CCN(C(=O)c2c(F)cccc2F)CC1
    7.3, -14.7, nt, -0.2, -8.0%, 0.707, nt
> COc1ccccc1NC(=O)C1=C(C)NC(=O)NC1c1ccc(C)s1 (stereo unspecified)
    0.3, 0.9, 1.5, -1.1, 7.6%, 0.682, i
> COc1ccc(Nc2nc3cc(-c4ccccc4C)sc3c(=O)n2C)cc1OC
    nt, -1.0, 7.6, nt, nt, nt, i
> CCSc1ncc(C#N)c(N)n1
    6.6, 2.4, nt, 0.9, 3.3%, 0.716, nt
> COc1ccc(C(CNc2ccc(S(=O)(=O)N3CCCC3)cc2[N+](=O)[O-])N2CCCC2)cc1 (stereo unspecified)
    -2.8, 1.1, nt, 2.4, -0.1%, 0.729, nt
> CCS(=O)(=O)N1CCN(S(=O)(=O)c2ccc3c(c2)OCCO3)CC1
    3.7, 1.9, 2.6, 0.5, -1.1%, 0.634, i
> CCN1CNC(=S)N(c2ccccc2C)C1
    0.9, -0.3, -0.9, 3.4, 3.5%, 0.675, i
> CCOC(=O)c1ccc(CNC(=O)Cn2nnc(-c3ccccc3)n2)o1
    -1.4, -1.2, -3.5, 4.8, 2.2%, 0.685, i
> C=C1CCC[C@]2(C)C[C@H]3OC(=O)C(CNC(C)(CO)CO)[C@H]3CC12 (stereo partly specified)
    -2.2, 1.6, -1.4, 13.2, -2.6%, 0.689, i

(cont.)
Second line of a record: RanGTP-Imp inh, HNF4A DNA FP, AF4-AF9 inh, UCH37 DUB inh, Vif TR-FRET, E coli growth, FGF22 binding
> COCc1[nH]nc2c1C(c1ccccc1OC)C(C#N)=C(N)O2 (stereo unspecified)
    1.5, -1.1, nt, 5.1, 14.6%&-0.9%, 0.819, nt
> COc1ccccc1NC(=O)c1cnc(Nc2ccccc2OC)c2ccccc12
    -0.8, 0.8, -6.6, -65.4, nt, 0.714, i
> COc1ccc(OC)c(NC(=O)C2CCCC2)c1
    2.9, 1.4, nt, 4.8, 10.8%, 0.741, nt
> COc1cccc(C(O)c2ncc(-c3cccc(C(F)(F)F)c3)[nH]2)c1 (stereo unspecified)
    nt, 3.9, -2.9, nt, nt, nt, i
> O=C(Nc1ccc(F)cc1)C(c1ccccc1OC(F)(F)F)N1CCN(c2cccc(C(F)(F)F)n2)CC1 (stereo unspecified)
    nt, 0.4, -1.7, nt, nt, nt, i
> O=c1cc(O)c2sc3nc(-c4cccnc4)cc(C(F)(F)F)c3c2[nH]1
    ?, 11.7, nt, -2.8, nt, 0.712, nt
> CC1Cc2ccccc2N1C(=O)CO/N=C/c1ccccc1OC(F)F (stereo unspecified)
    -1.6, 1.8, -2.4, nt, nt, nt, i
> CC1(C)CCC(=NNC(N)=S)CC1
    nt, 4.1, -6.1, nt, -7.8%, nt, i
> COc1cc(/C=C/C(=O)NC(=O)c2ccccc2O)ccc1OC(C)=O
    0.2, 2.9, 0.1, 1.2, nt, 0.696, i
> CC(C)NS(=O)(=O)c1ccc(OCC(=O)Nc2ccc(F)cc2)cc1
    6.3, 0.4, 0.6, 2.0, -1.8%, 0.716, nt
> Cc1nc2ccc(N=NN(C)C)cc2[nH]1
    3.4, -3.6, 2.4, 4.6, -5.2%, 0.651, i
> CCc1cc(=O)oc2c(CNCc3c(F)cccc3Cl)c(O)ccc12
    0.4, 4.6, 1.1, i, 2.3%, 0.656, i
> CC(=O)NCC(=O)N(Cc1ccco1)C1(C(=O)NC2CCCC2)CCCCC1
    3.6, -0.5, 2.2, 3.8, nt, 0.701, i
